PABP polyA inh – PABP poly(A) RNA binding inhibitors, primary screen, biochemical, fluorescence polarization, uHTS; Polyadenylate-binding protein 1 (Homo sapiens), P11940; 1% of 290,000 active; AID 2014, 2009; inhibition, % at 35 µM;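 active = 50% or more with normal probe brightness, or confirmed in later tests; about a fifth of its hits are not listed in these tables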;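 also: calls also rest on retests at 20 µM and on dose response follow-up; controls were probe without protein and protein plus probe with vehicle; some compounds called inactive have numbers as strong as hits; many hits fall short of the cut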
Target sequence (P11940 whole entry, looked up): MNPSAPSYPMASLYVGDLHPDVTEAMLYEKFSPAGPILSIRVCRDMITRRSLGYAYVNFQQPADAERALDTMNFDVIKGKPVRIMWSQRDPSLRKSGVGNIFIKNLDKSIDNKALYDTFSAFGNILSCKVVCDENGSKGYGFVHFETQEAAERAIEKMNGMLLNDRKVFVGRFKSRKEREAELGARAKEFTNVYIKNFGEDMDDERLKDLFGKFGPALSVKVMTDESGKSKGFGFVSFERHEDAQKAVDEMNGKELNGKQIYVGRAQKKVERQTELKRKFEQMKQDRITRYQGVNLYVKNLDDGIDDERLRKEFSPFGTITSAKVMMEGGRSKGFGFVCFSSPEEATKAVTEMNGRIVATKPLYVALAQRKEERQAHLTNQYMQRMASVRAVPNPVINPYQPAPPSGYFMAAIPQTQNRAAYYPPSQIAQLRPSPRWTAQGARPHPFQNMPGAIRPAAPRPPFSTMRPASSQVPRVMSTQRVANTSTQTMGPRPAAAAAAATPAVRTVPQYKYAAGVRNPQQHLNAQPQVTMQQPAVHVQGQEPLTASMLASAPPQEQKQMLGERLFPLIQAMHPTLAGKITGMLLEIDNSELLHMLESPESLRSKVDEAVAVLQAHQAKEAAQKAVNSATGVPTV
HIV Env fusion – inhibitors of HIV-1 Env-driven cell-cell fusion, primary screen, HeLa-JRFL effector, CEM21 target cells, luciferase; inhibition, % at 12.3 µM; 1.1% of 360,000 active;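 active = mean replicate inhibition score of at least 50 and every replicate individually at or above 50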;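 also: 0% = plate neutral controls and 100% = maraviroc near 300 nM; one replicate is shown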
MT1-MMP act inh – blockers of MT1-MMP proenzyme processing, primary screen, HT1080 RFP-PRO-GFP cells, GFP/RFP fluorescence; Matrix metalloproteinase-14 (Homo sapiens), P50281; GFP/RFP ratio fluorescence, overnight; percent of plate control window, DMSO zero; GFP/RFP ratio change, % at 20 µM; 0.061% of 360,000 active;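 active = GFP/RFP ratio change of at least 30% with cell ATP level not reduced by more than half and red fluorescence within 50% of control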; also: strong numbers were not always called active
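Test system: HT1080 cells expressing an RFP-PRO-GFP fluorescent reporter construct / Compound dosing: single-point 20 µM compound, 1% DMSO / Schedule: cells overnight before dosing, compound overnight, 37 °C, 5% CO2 / Evaluation: GFP/RFP fluorescence ratio / Control set: DMSO and RFP-L50D-GFP cell wells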
Yeast UUG start – modulators of yeast start codon fidelity, primary screen, whole organism, S. cerevisiae, single point, plate reader. S. cerevisiae UUG-firefly luciferase reporter, luminescence/redox ratio. activity score, % at 18.7 µM. 0.13% of 350,000 active;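 active = replicate mean at a twofold rise or more, about +100% in these data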;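 also: firefly luciferase made from a UUG start codon reports start codon fidelity; reporter light over untreated wells divided by growth signal over untreated wells; some hits fall short of that in this replicate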
Rce1 inh – yeast Rce1p protease inhibitors, primary screen, biochemical, fluorescence, cell-free homogeneous. CAAX prenyl protease 2 (Saccharomyces cerevisiae (strain ATCC 204508 / S288c)), Q03530. yeast membranes, quenched prenylated peptide cleavage fluorescence. calls only. 0.27% of 290,000 active. AID 2563, 2010;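 active = fall in fluorescence gain of 50% or more versus controls, with final raw signal at or below 3038400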;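 also: plate controls were neutral control wells for no effect and wells lacking membranes for full effect; tested at 10 µM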
Target sequence (Q03530 whole entry, looked up): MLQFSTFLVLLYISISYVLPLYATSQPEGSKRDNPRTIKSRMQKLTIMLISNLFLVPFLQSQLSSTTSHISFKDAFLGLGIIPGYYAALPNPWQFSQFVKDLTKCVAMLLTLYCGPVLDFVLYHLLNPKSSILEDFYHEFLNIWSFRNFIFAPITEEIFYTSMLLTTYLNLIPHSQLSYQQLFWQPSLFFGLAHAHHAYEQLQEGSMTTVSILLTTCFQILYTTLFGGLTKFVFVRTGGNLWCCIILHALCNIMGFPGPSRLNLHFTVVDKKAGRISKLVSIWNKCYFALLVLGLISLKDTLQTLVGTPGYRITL
eIF4H FP inh – human eIF4H binding inhibitors, primary screen, translation initiation inhibitor project, biochemical, uHTS, fluorescence polarization; Eukaryotic translation initiation factor 4H (Homo sapiens), Q15056; eIF4H fluorescence polarization binding assay; inhibition, % at 35 µM; 0.94% of 290,000 active; AID 2012, 2009;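 active = 50% or more with normal probe brightness, or confirmed in later tests; about a fifth of its hits are not listed in these tables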;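 also: calls also rest on retests at 20 µM and on dose response follow-up; 0% = protein and probe with vehicle and 100% = probe without protein; strong numbers were not always called active; many hits fall short of the cut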
CSC inhib – cancer stem cell viability inhibitors, primary screen, luminescence; inhibition, % at 7.5 µM; cancer stem cell-like cells viability; AID 2717, 2010; 1.1% of 300,000 active;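 active = mean at 75% or more and at least half the replicates too; tested in HMLE shEcad cells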;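 also: 0% = median of negative and 100% = median of positive control wells; the first replicate is given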
eIF4H FP inh retest – second read-out of eIF4H FP inh, no call of its own (marks repeat the call); inhibition, %; compound at 20 µM; confirmation average;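 mean of two retest wells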
PABP polyA inh retest – further read-out of PABP polyA inh, marked with its call; inhibition, %; compound at 20 µM; confirmation repeats;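 mean of two retest wells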
MT1-MMP act inh RFP – further read-out of MT1-MMP act inh, marked with its call; RFP signal change, %; measured here: RFP expression control read;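 0 = vehicle wells; hits needed this value within 50% of zero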
* hit, by the source's call; & = joins results of further samples; [ ] = remark or other dose.

A first look, two compounds:
How did COc1ccc(C(=O)Oc2ccc3c(c2)OCO3)cc1OC do in these assays?
PABP polyA inh: -4; HIV Env fusion: -34; MT1-MMP act inh: -2; Yeast UUG start: -12; Rce1 inh: inactive; eIF4H FP inh: 6; CSC inhib: 4; MT1-MMP act inh RFP: -1

How did CC1(c2ccc(OC(F)F)cc2)NC(=O)N(CC(=O)Nc2cccnc2Cl)C1=O (stereo unspecified) do in these assays?
HIV Env fusion: -3; MT1-MMP act inh: 4; Yeast UUG start: -7; Rce1 inh: inactive; CSC inhib: -7; MT1-MMP act inh RFP: 3

All compounds of this part (from the top)
How did COc1ccc(C(=O)Oc2ccc3c(c2)OCO3)cc1OC do in these assays?
PABP polyA inh: -4; HIV Env fusion: -34; MT1-MMP act inh: -2; Yeast UUG start: -12; Rce1 inh: inactive; eIF4H FP inh: 6; CSC inhib: 4; MT1-MMP act inh RFP: -1

How did CC1(c2ccc(OC(F)F)cc2)NC(=O)N(CC(=O)Nc2cccnc2Cl)C1=O (stereo unspecified) do in these assays?
HIV Env fusion: -3; MT1-MMP act inh: 4; Yeast UUG start: -7; Rce1 inh: inactive; CSC inhib: -7; MT1-MMP act inh RFP: 3

Results for COc1cc(OC)cc(-c2cc(N3C(=O)Nc4ccccc4N3O)n[nH]2)c1 ?
PABP polyA inh: -1; HIV Env fusion: -3; MT1-MMP act inh: 3; Yeast UUG start: -10; Rce1 inh: inactive; eIF4H FP inh: 7; CSC inhib: -1; MT1-MMP act inh RFP: 3

Results for COc1ccc(N(CCC(=O)O)S(=O)(=O)c2ccc(C)cc2C)cc1 ?
PABP polyA inh: -24; HIV Env fusion: 2; MT1-MMP act inh: 1; Rce1 inh: inactive; eIF4H FP inh: 9; CSC inhib: -3; MT1-MMP act inh RFP: 2

Results for CN(C(=O)c1c(Br)cnn1C)C12CC3CC(CC(C3)C1)C2 ?
PABP polyA inh: 5; HIV Env fusion: 14; eIF4H FP inh: -8

What do the screens show for `COc1ccc2nc(NC(=O)c3ccccc3C(=O)O)sc2c1`?
PABP polyA inh: -6; HIV Env fusion: -7; MT1-MMP act inh: -3; Yeast UUG start: -8; Rce1 inh: inactive; eIF4H FP inh: 7; CSC inhib: -9; MT1-MMP act inh RFP: -3

How did Cc1nc2ccc(NC(=O)c3ccc(Cl)nc3)cc2s1 do in these assays?
PABP polyA inh: 9; HIV Env fusion: -1; MT1-MMP act inh: 8; Yeast UUG start: -11; Rce1 inh: inactive; eIF4H FP inh: -8; CSC inhib: -14; MT1-MMP act inh RFP: -6

How did CCC(CC)C(=O)c1c[nH]c(C(=O)NCCOC)c1 do in these assays?
PABP polyA inh: -5; HIV Env fusion: -3; MT1-MMP act inh: 2; Yeast UUG start: -11; Rce1 inh: inactive; eIF4H FP inh: -6; CSC inhib: 0; MT1-MMP act inh RFP: 2

Results for C(=NCCCN1CCOCC1)c1ccc2c(c1)OCO2 ?
PABP polyA inh: -8; MT1-MMP act inh: 1; Yeast UUG start: -24; Rce1 inh: inactive; eIF4H FP inh: -1; CSC inhib: -10; MT1-MMP act inh RFP: 5

Results for CC(=O)Nc1cccc(NC(=O)CCNC(=O)c2ccc(Cl)cc2)c1 ?
PABP polyA inh: 14; HIV Env fusion: -15; MT1-MMP act inh: 2; Yeast UUG start: -30; Rce1 inh: inactive; eIF4H FP inh: -2; CSC inhib: -8; MT1-MMP act inh RFP: 3

What do the screens show for `O=C1c2ccccc2NC(c2cccc(O)c2)N1c1ccccc1` (stereo unspecified)?
PABP polyA inh: 4; HIV Env fusion: -4; MT1-MMP act inh: 0; Yeast UUG start: -12; Rce1 inh: inactive; eIF4H FP inh: 7; CSC inhib: 62; MT1-MMP act inh RFP: 0

How did COc1ccc(/C=C(\C#N)C(=O)ONC2=NCCCCC2)cc1 do in these assays?
PABP polyA inh: -3; HIV Env fusion: -20; MT1-MMP act inh: -1; Rce1 inh: inactive; eIF4H FP inh: 8; CSC inhib: -2; MT1-MMP act inh RFP: 2

How did COc1ccccc1/C=C/C(C)=O do in these assays?
PABP polyA inh: 5; HIV Env fusion: -57; MT1-MMP act inh: 6; Rce1 inh: inactive; eIF4H FP inh: 4; CSC inhib: -1; MT1-MMP act inh RFP: -2

How did S=C1NC2=C(C(c3ccc(Br)cc3)N1)N1CCC2CC1 (stereo unspecified) do in these assays?
PABP polyA inh: 3; MT1-MMP act inh: 0; Yeast UUG start: -23; Rce1 inh: inactive; eIF4H FP inh: 6; CSC inhib: -10; MT1-MMP act inh RFP: 1

How did O=C(CCSc1ccccc1)NC(=O)COC(=O)C1CCCCC1 do in these assays?
PABP polyA inh: 4; HIV Env fusion: -12; Rce1 inh: inactive; eIF4H FP inh: 3; CSC inhib: 4

What do the screens show for `CCOC(=O)c1cnc2c(cnn2C)c1NCCC#N`?
PABP polyA inh: -5; HIV Env fusion: 6; MT1-MMP act inh: 2; Yeast UUG start: -9; Rce1 inh: inactive; eIF4H FP inh: 13; CSC inhib: -2; MT1-MMP act inh RFP: -1

What do the screens show for `COc1ccc(NC(=O)CCN2CCN(C/C=C/c3ccccc3)CC2)cc1`?
PABP polyA inh: 4; HIV Env fusion: 0; MT1-MMP act inh: 5; Yeast UUG start: 1; Rce1 inh: inactive; eIF4H FP inh: 2; MT1-MMP act inh RFP: 1

What do the screens show for `NC(=S)NN=Cc1nccc2c(N)cccc12`?
HIV Env fusion: 12; MT1-MMP act inh: 6; Yeast UUG start: -7; MT1-MMP act inh RFP: -9

Results for CN(c1ccc(C(=O)NCc2cccnc2)cc1)S(C)(=O)=O ?
PABP polyA inh: -9; MT1-MMP act inh: 3; Yeast UUG start: -1; Rce1 inh: inactive; eIF4H FP inh: 5; CSC inhib: -4; MT1-MMP act inh RFP: 0

How did COCCn1c(C)cc(C(=O)CSc2nncn2-c2ccccc2)c1C do in these assays?
PABP polyA inh: 6; HIV Env fusion: -6; MT1-MMP act inh: 0; Yeast UUG start: -5; Rce1 inh: inactive; eIF4H FP inh: 8; CSC inhib: -4; MT1-MMP act inh RFP: 0

How did CCN(CC)S(=O)(=O)c1ccc(NC(=O)Cn2cnc3ccccc3c2=O)cc1 do in these assays?
PABP polyA inh: -10; HIV Env fusion: -35; MT1-MMP act inh: 1; Yeast UUG start: -41; Rce1 inh: inactive; eIF4H FP inh: 6; CSC inhib: 3; MT1-MMP act inh RFP: -2

Results for COCCn1c(N)c(N(Cc2ccccc2)C(=O)COc2ccc(F)cc2Cl)c(=O)[nH]c1=O ?
HIV Env fusion: -15; MT1-MMP act inh: 3; Yeast UUG start: -7; Rce1 inh: inactive; CSC inhib: 1; MT1-MMP act inh RFP: -2

What do the screens show for `Cc1cc2oc(=O)cc(CN3CCOCC3)c2cc1C(C)C`?
PABP polyA inh: 7; HIV Env fusion: 11; MT1-MMP act inh: -7; Yeast UUG start: -5; eIF4H FP inh: 2; CSC inhib: 1; MT1-MMP act inh RFP: -5

What do the screens show for `CSc1nnc(-c2ccc(Br)s2)n1C`?
PABP polyA inh: 4; HIV Env fusion: -31; MT1-MMP act inh: -1; Rce1 inh: inactive; eIF4H FP inh: 9; CSC inhib: -5; MT1-MMP act inh RFP: 0

What do the screens show for `Cc1cc(C(=O)Nc2c(C)n(C)n(-c3ccccc3)c2=O)c(C)o1`?
PABP polyA inh: -1; HIV Env fusion: -26; MT1-MMP act inh: -6; Yeast UUG start: -10; Rce1 inh: inactive; eIF4H FP inh: 1; CSC inhib: -14; MT1-MMP act inh RFP: -3

How did CCO[C@H]1OC(C(=O)N2CCN(Cc3ccc4c(c3)OCO4)CC2)=C[C@@H](C2CC2)[C@@H]1CCCO do in these assays?
PABP polyA inh: 2; HIV Env fusion: 1; MT1-MMP act inh: -3; Yeast UUG start: -8; Rce1 inh: inactive; eIF4H FP inh: 14; CSC inhib: -10; MT1-MMP act inh RFP: 0

What do the screens show for `COc1cccc(C(C(=O)NC2CCCCC2)N(Cc2ccco2)C(=O)c2ccccn2)c1` (stereo unspecified)?
PABP polyA inh: 8; HIV Env fusion: 8; MT1-MMP act inh: -2; Yeast UUG start: -15; Rce1 inh: inactive; eIF4H FP inh: 9; CSC inhib: -11; MT1-MMP act inh RFP: -1

Results for CCc1nnc(NC(=O)c2cc(-c3ccccc3)nn2-c2ccccc2)s1 ?
PABP polyA inh: -6; HIV Env fusion: -53; MT1-MMP act inh: 3; Yeast UUG start: -17; Rce1 inh: inactive; eIF4H FP inh: 5; CSC inhib: -5; MT1-MMP act inh RFP: 1

What do the screens show for `CN(C(=O)COc1coc(CN2CCN(c3ccccc3)CC2)cc1=O)c1ccccc1`?
HIV Env fusion: -14; MT1-MMP act inh: 0; Yeast UUG start: 3; Rce1 inh: inactive; CSC inhib: -5; MT1-MMP act inh RFP: 0

What do the screens show for `Cc1ccc(NS(=O)(=O)c2ccc(C(=O)N3CC(C)OC(C)C3)cc2)cc1` (stereo unspecified)?
PABP polyA inh: 0; HIV Env fusion: -56; MT1-MMP act inh: 5; Yeast UUG start: 0; Rce1 inh: inactive; eIF4H FP inh: 92; CSC inhib: -5; eIF4H FP inh retest: -14; PABP polyA inh retest: 14; MT1-MMP act inh RFP: -7

What do the screens show for `CCCN(C(=O)/C=C/c1ccco1)c1c(N)n(Cc2ccccc2)c(=O)[nH]c1=O`?
PABP polyA inh: 40; HIV Env fusion: 6; MT1-MMP act inh: -1; Rce1 inh: inactive; eIF4H FP inh: -5; CSC inhib: -15; MT1-MMP act inh RFP: 3

Results for CN(CC(=O)Nc1cccc(F)c1)C(=O)c1ccccc1CCc1ccccc1 ?
HIV Env fusion: 13; MT1-MMP act inh: 3; Yeast UUG start: -2; Rce1 inh: inactive; CSC inhib: 22; MT1-MMP act inh RFP: -3

Results for O=[N+]([O-])c1ccc(C2=NN(CCO)C(=Nc3ccc(OC(F)(F)F)cc3)SC2)cc1 ?
PABP polyA inh: -6; HIV Env fusion: 24; MT1-MMP act inh: -1; Rce1 inh: inactive; eIF4H FP inh: 0; CSC inhib: 89*; MT1-MMP act inh RFP: -1

What do the screens show for `CNC(=S)NNC(=O)CNc1ccc(C)c(Cl)c1`?
PABP polyA inh: 1; HIV Env fusion: 3; MT1-MMP act inh: 0; Rce1 inh: inactive; eIF4H FP inh: -1; CSC inhib: -8; MT1-MMP act inh RFP: 1

What do the screens show for `CN1CCN(C(=O)C2=C[C@H](C3CCCCC3)C[C@H](OCc3ccc(CO)cc3)O2)CC1`?
PABP polyA inh: -9; HIV Env fusion: 11[16.7 µM]; MT1-MMP act inh: 1; Yeast UUG start: 3&2; Rce1 inh: inactive; eIF4H FP inh: -8; CSC inhib: 5; MT1-MMP act inh RFP: 4

Results for O=C(NCCn1cccn1)c1ccc(OC2CCN(C(=O)C3CC3)CC2)cc1 ?
PABP polyA inh: -13; HIV Env fusion: 14; MT1-MMP act inh: 3; eIF4H FP inh: 2; CSC inhib: -10; MT1-MMP act inh RFP: 0

What do the screens show for `CCOC(=O)c1ccc(NS(=O)(=O)c2cc3c(cc2C)NC(=O)CO3)cc1`?
PABP polyA inh: 4; HIV Env fusion: -1; MT1-MMP act inh: 1; Yeast UUG start: -10; Rce1 inh: inactive; eIF4H FP inh: 4; CSC inhib: -4; MT1-MMP act inh RFP: -3

What do the screens show for `CCOC(=O)c1ccc(NC(=S)NCCc2ccccc2)cc1`?
PABP polyA inh: 1; MT1-MMP act inh: 13; Yeast UUG start: -16; Rce1 inh: inactive; eIF4H FP inh: -6; CSC inhib: 5; MT1-MMP act inh RFP: 0

Source: PubChem BioAssay (several laboratories)
